Assay outcomes as filed in PubChem BioAssay.
2A StopGo – FMDV 2A StopGo reporter, luciferase signal. Potency, µM (highest dose often 57.9 µM), inactives show at the highest dose signal change, negative = less light. hit rate 1.2% among 410,000. AID 1159524. human cells with a luciferase reporter of 2A StopGo recoding; control for the full effect not named in the record; active = well fitted falling curve with a large enough effect; inconclusive = small, poorly fitted or top-dose-only effect; inactive = no such curve, though single readings can be large or run the other way; tested in HEK293T cells; note: % is set by controls: 0 for no effect and ±100 for the full control effect; nearly all actives have a fitted effect of over 45% in size; luciferase light after 4 h
NS1 inh – blocks influenza NS1 protein function. S. cerevisiae slowed by influenza A NS1, growth recovery by OD600. Potency, µM (top dose mostly 46.1 µM), for inactives: top-dose activity, positive = more growth. hit rate 0.4% among 270,000; note: actives are rising curves; nearly all actives have a fitted effect of over 50% in size
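In this qHTS, NS1 from influenza A is expressed in budding yeast, where it slows growth. Cells are switched from glucose to 2% galactose medium (pH 6.0, -URA), treated with compound, and growth recovery is read at OD600.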
RE007 growth inh – less growth of the S. pombe RE007 Vpr strain. S. pombe RE007 Vpr strain, BacTiter-Glo ATP luminescence, 24 h; control for the full effect not named in the record. Potency, µM (titrated, usually from 92.2 µM), without a hit: top-dose activity change, negative = less growth. hit rate 0.21% among 360,000. AID 651644; active = well fitted falling curve with a large enough effect; inconclusive = small, poorly fitted or top-dose-only effect; inactive = no such curve, though single readings can be large or run the other way;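 note: % is set by controls: 0 for no effect and ±100 for the full control effect; nearly all actives have a fitted effect of over 50% in size; the assay follows cell death caused by Vpr and the record does not say whether a fall means rescue or toxicity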
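Fission yeast strain RE007, carrying one chromosomally integrated HIV-1 vpr copy, was seeded at OD 0.01 in PMG+AL medium with 23 nL pinned compound. After 24 h at 30 °C and 99% humidity, viability was read by BacTiter-Glo luminescence.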
Cruzain Triton – cruzain (T. cruzi) inhibition with detergent; hit rate 0.43% among 200,000; AID 1478; Potency, µM, inactives show max response, negative = inhibition, most hits filed as inhibitors; purified cruzain, Z-FR-AMC fluorescence, 0.01% Triton; active = well fitted curve in the direction sought with a large enough effect; inconclusive = small, poorly fitted or top-dose-only effect, or another doubt; inactive = no such curve, though single readings can be large; an effect the other way counts as inactive or inconclusive;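 note: plate controls were neutral wells for no effect and buffer without enzyme for full effect; nearly all actives have a fitted effect of over 40% in size; top concentration of the series not given in the record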
Target sequence (P25779 123-467 limits assumed): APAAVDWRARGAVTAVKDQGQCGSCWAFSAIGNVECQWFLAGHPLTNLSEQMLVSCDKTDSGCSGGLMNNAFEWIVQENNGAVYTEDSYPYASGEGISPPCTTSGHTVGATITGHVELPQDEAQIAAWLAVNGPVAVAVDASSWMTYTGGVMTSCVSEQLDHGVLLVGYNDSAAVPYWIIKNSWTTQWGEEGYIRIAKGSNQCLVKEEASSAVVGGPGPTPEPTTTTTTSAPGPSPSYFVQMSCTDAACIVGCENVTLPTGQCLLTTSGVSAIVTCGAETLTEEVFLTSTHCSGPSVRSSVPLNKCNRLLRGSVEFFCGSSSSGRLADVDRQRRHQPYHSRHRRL
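Detergent-containing arm of a paired screen for aggregation-based inhibition: 0.01% Triton X-100 present. Cruzain at 1.5 nM cleaved 2 uM Z-FR-AMC at pH 5.5 with 5 mM DTT; AMC fluorescence gain over 60 s measured activity.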
Lassa entry inh – blocks Lassa virus binding to or entry into cells; Lassa virus pseudotype entry inhibition, cell reporter; control for the full effect not named in the record; Potency, µM (top dose mostly 37.9 µM), for inactives: top-dose activity change, negative = inhibition, usual class: inhibitors; hit rate 1.2% among 300,000; active means well fitted inhibition curve with a large enough effect; inconclusive means small, poorly fitted or top-dose-only effect, or effect the other way; inactive means flat fitted curve, though single readings scatter; tested in HEK293 cells; note: % is set by controls: 0 for no effect and ±100 for the full control effect; nearly all actives have a fitted effect of over 50% in size; luciferase read-out
MARV entry inh – blocks Marburg virus binding to or entry into cells; Marburg virus pseudotyped entry inhibition, cell reporter; control for the full effect not named in the record; about a third of the inactives were read at about 46 µM; Potency, µM (highest dose often 37.8 µM), for the others: at the highest dose activity change, negative = inhibition, most hits filed as inhibitors; hit rate 1.8% among 300,000; active = well fitted inhibition curve with a large enough effect; inconclusive = small, poorly fitted or top-dose-only effect, or effect the other way; inactive = flat fitted curve, though single readings scatter; tested in HEK293 cells; about a fifth of its hits are not listed in these tables; note: % is set by controls: 0 for no effect and ±100 for the full control effect; luciferase read-out
SARS PLP yeast – blocks SARS-CoV papain-like protease in a yeast assay | S. cerevisiae expressing SARS-CoV PLpro, growth rescue; control for the full effect not named in the record | Potency, µM (doses to about 32.9 µM), for inactives: at the top dose activity, positive = growth rescue | hit rate 0.19% among 330,000 | AID 485353; note: 0% is about no effect; nearly all actives have a fitted effect of over 55% in size; growth read by luminescence after 48 h
Cruzain inh noDet – inhibitors of Trypanosoma cruzi cruzain without detergent; hit rate 2.3% among 200,000; purified cruzain, Z-FR-AMC fluorescence, no detergent; Potency, µM, for the others: max response, negative = inhibition, actives largely listed as inhibitors; P25779; active = well fitted curve in the direction sought with a large enough effect; inconclusive = small, poorly fitted or top-dose-only effect, or another doubt; inactive = no such curve, though single readings can be large; an effect the other way counts as inactive or inconclusive;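 note: plate controls were enzyme without inhibitor for no effect and buffer without enzyme for full effect; nearly all actives have a fitted effect of over 40% in size; top concentration of the series not given in the record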
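Purified cruzain at 1.5 nM, pre-incubated 15 min with compound at room temperature in 100 mM sodium acetate pH 5.5, 5 mM DTT, 0.00005% Triton X-100. Reaction started with 2 uM Z-FR-AMC; AMC fluorescence increase over 60 s gives rate.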
Numbers without * were called inactive; ? = inconclusive; · = no result given; & = joins results of further samples; [ ] = another dose, or the depositor's remark. Unless noted, calls come from the whole dose curve; as a rule, active means well fitted rising curve with a large enough effect; inconclusive means small, poorly fitted or top-dose-only effect; inactive means no such curve, though single readings can be large or run the other way. Potency is the fitted concentration of half-maximal effect. Outcome played no part in choosing rows. About 4.7% of those tested had a hit in this group.

SMILES	2A StopGo	NS1 inh	RE007 growth inh	Cruzain Triton	Lassa entry inh	MARV entry inh	SARS PLP yeast	Cruzain inh noDet
O=C(NCC1CCCO1)c1ccc2c(c1)ncn2-c1cccc(F)c1 (stereo not drawn)	10%	-5%	-8%	·	-3%[46.1 µM]	1%[46.1 µM]	7%	·
CCc1ccc(C2=CC(c3cccc(C)c3)n3c(nc4ccccc43)N2)cc1 (stereo not drawn)	-59%	·	·	-6.4%	?	·	·	?
COc1ccc(C(O)CNc2ccc(C)cc2)cc1 (stereo not drawn)	-9%	-3%	-16%	-3.6%	-4%	6%[46.1 µM]	4%	6%
O=C(NC(Cc1c[nH]c2ccccc12)C(=O)O)/C(=C/c1ccc(F)cc1)NC(=O)c1ccccc1 (stereo not drawn)	-3%	-1%	4%	·	·	·	0%	·
S=c1[nH]cc(Cc2ccccc2)s1	0%	-16%	4%	-1.7%	?	3%	23%	-1%
Cc1ccc(N2C(=O)NC(=O)C(CCc3ccncc3)(Cc3cccc(Cl)c3Cl)C2=O)cc1 (stereo not drawn)	?	11%	21%	-6.3%	-16%	?	-11%	-2%
CC(=O)c1cccc(NCc2ccccc2-c2nnc(-c3ccccc3)o2)c1	23%	·	·	-1.9%	14%[46.1 µM]	20%[46.1 µM]	·	2%
O=C(O)CC1(CC(=O)Nc2ccc3sccc3c2)CCCCC1	1%	3%	-9%	·	10%	5%	2%	·
COc1cc(/C=C/C(=O)O)cc(S(=O)(=O)NCc2ccco2)c1OC	55%[activator]	1%	-3%	·	?	8%	1%	·
CC(=O)Nc1c2c(nn1-c1ccc(C)cc1)CS(=O)(=O)C2	-20%	-2%	1%	·	·	·	-1%	·
COc1ccc(CCNC(=O)c2c([S-])n(-c3ccc(C)cc3)c3cccc[n+]23)cc1	0%	-4%	5%	·	?	?	-1%	·
COc1cccc(CNC(=O)CC2C(=O)NCCN2CCCc2ccccc2)c1 (stereo not drawn)	-6%	25%	3%	·	·	·	-6%	·
NCCc1nnc(SCc2ccc(F)cc2)o1	-12%	1%	8%	-0.7%	-13%	?	10%	-8%
CC(NS(=O)(=O)c1ccc(Br)s1)c1ccccc1 (stereo not drawn)	2%	-11%	-2%	·	·	·	-1%	·
COc1cc(NC(=O)COC(=O)CCOc2ccc(C)cc2)cc(OC)c1	-6%	-50%	-12%	·	?	26%	2%	·
COc1cc(C(=O)Nc2ccc(NC(=O)c3cccc(Cl)c3)nc2)cc(OC)c1OC	-21%	2%	-6%	·	?	?	11%	·
CCOCCCNC(=O)C(c1ccc(C)cc1)N(Cc1cccs1)C(=O)c1ccccn1 (stereo not drawn)	-8%	·	4%	·	·	-25%[46.1 µM]	1%	·
CC1=C(C(=O)Nc2ccccc2Cl)C(c2cccs2)n2ncnc2N1 (stereo not drawn)	-6%	·	·	0.0%	-29%[46.1 µM]	·	·	3%
CC(=O)OC1N=C(c2ccc(Cl)cc2)c2cc(Br)ccc2NC1=O (stereo not drawn)	-17%	12%	-2%	-4.7%	-2%	-2%	0%	?
Brc1cccc(OCCOCCn2ccnc2)c1	-1%	-3%	4%	5.1%	9%	-1%	13%	12%
CCOC(=O)N1CCC(N(C(=O)Nc2ccccc2)C(C)CC)CC1 (stereo not drawn)	·	-14%	-19%	6.0%	-16%	9%	-1%	-7%
O=C(COC(=O)Cc1c[nH]c2ccccc12)Nc1c(Cl)cccc1C(F)(F)F	-14%	·	3%	·	13%	8%[46.1 µM]	-1%	·
CCOC(=O)c1c(NC(=O)C[n+]2ccc(N(C)C)cc2)sc(C)c1C	-3%	·	-27%	·	?	-2%[46.1 µM]	-8%	·
O=[N+]([O-])c1cccc(-c2ccc(C(=S)N3CCOCC3)o2)c1	4%	4%	-15%	·	17%[46.1 µM]	?	0%	·
O=C(O)c1cc(S(=O)(=O)Nc2ccc3oc(=O)sc3c2)ccc1O	-18%	-9%	13%	0.8%	17%	-22%&-22%[46.1 µM]	0%	-13%
COc1ccc(-c2nn(-c3ccccc3)cc2/C=C2/SC(=S)N(Cc3ccco3)C2=O)c(C)c1	-1%	-4%	12%	0.5%	?	-1%	-2%	3.2µM*
CCOC(=O)N1CCN(S(=O)(=O)c2ccc(C(=O)N(CCN(C)C)c3nc4ccc(CC)cc4s3)cc2)CC1	6%	-10%	1%	·	-9%[46.1 µM]	?	-6%	·
Cc1ccc(Nc2nc(N)nc(CN3CCN(Cc4ccccc4)CC3)n2)cc1Cl	-30%	-3%	17%	·	·	·	-1%	·
Cc1cc(C)c2c(n1)nn1c(-n3ccnc3)cc(C)nc21	?	-36%	-18%	-7.4%	2%	20%	-29%	6%
O=C(Nc1ccc2oc(-c3ccc(O)c(Br)c3)nc2c1)c1cc2ccccc2o1	8%	·	·	0.7%	27%[46.1 µM]	?	·	-14%
O=C1NCCCC1C(=O)N1CCCCC1 (stereo not drawn)	-16%	·	-17%	·	-2%[46.1 µM]	12%[46.1 µM]	-6%	·
CC1=C(C(=O)OC2CCCC2)C(c2cccc(Cl)c2Cl)CC(=O)N1 (stereo not drawn)	?	·	·	-11%	15%[46.1 µM]	-47%[46.1 µM]	·	-12%
COc1ccc(OCc2cc(C(=O)NC(C)c3cnn(C)c3)no2)c(Cl)c1 (stereo not drawn)	24%	-22%	-1%	·	?	-2%[46.1 µM]	3%	·
Cc1ccc(Cl)cc1N1CCN(C(=O)C2CCN(S(=O)(=O)c3ccc4c(c3)oc(=O)n4C)CC2)CC1	?	·	·	-6.3%	-14%[46.1 µM]	·	·	?
O=S(=O)(Nc1cnc2ccccc2c1)N1CCCCCC1	-23%	-30%	25%	-2.6%	-2%	-13%[46.1 µM]	·	-4%
COc1cccc(N2CCN(C(=O)Cn3ncc4c(=O)oc5ccccc5c43)CC2)c1	-14%	·	·	0.0%	19%[46.1 µM]	16%[46.1 µM]	·	5%
CS(=O)(=O)N(CC(=O)Nc1ccc(S(=O)(=O)N2CCOCC2)cc1)c1ccccc1Br	-22%	-7%	-6%	·	-17%	?	0%	·
O=C(NNS(=O)(=O)c1ccc2ccccc2c1)c1cccs1	56%[activator]	-2%	-11%	0.6%	3%	2%	7%	3%
CCCc1[nH][nH]c(=O)c1C(c1cccc(Cl)c1)C(C#N)C#N (stereo not drawn)	?	-11%	2%	-9.9%	-20%	?	-2%	8%
Cn1/c(=N\NC(=O)C2CCCCC2)sc2ccccc21	57%[activator]	·	-9%	·	?	?	2%	·
COc1ccc(C2CC(=O)Oc3cc4c(cc32)OCO4)cc1 (stereo not drawn)	-15%	·	12%	-4.8%	·	·	-12%	8%
CN(C)C(CNC(=O)c1cccc(NS(=O)(=O)c2ccc(Br)cc2)c1)c1ccco1 (stereo not drawn)	2%	·	-11%	·	-1%	-7%	-3%	·
COc1ccc(OCCN2C(=O)c3ccccc3C2=O)cc1	53%[activator]	·	7%	·	29%	2%[46.1 µM]	-4%	·
CCCCCCC(=O)OC1CC(C)(C)NC(C)(C)C1	-18%	·	·	-3.7%	?	?	·	-8%
CC1CCCCN1C(=O)CSc1nc(N)cc(=O)[nH]1 (stereo not drawn)	-12%	0%	-1%	3.6%	9%	-2%	1%	-7%
COc1ccc(C(=O)n2nc(-c3ccco3)nc2N)cc1	-8%	1%	-13%	-4.4%	8%	3%[46.1 µM]	-10%	-5%
CNC(=O)c1c(NC(=O)c2ccc(S(=O)(=O)N3CCCCC3C)cc2)sc2c1CCN(C)C2 (stereo not drawn)	28%	-7%	-4%	·	·	·	-3%	·
CCOc1ccc(S(=O)(=O)Nc2ccc3c(c2)CCCN3C(=O)c2cccs2)cc1	-14%	·	·	-5.9%	?	·	·	5%
CC(C)Oc1ccc(CNCCC2(C(C)C)CCOC(C)(C)C2)cc1 (stereo not drawn)	16%	0%	-8%	2.3%	?	?	-8%	-16%
CCN(CC)CCn1c2c(c(SCC(=O)Nc3nc4ccccc4s3)nc1=O)CCC2	-29%	·	14%	·	-19%	?	2%	·
COc1ccc(NC(=O)C(=O)c2cn(CC(=O)N3CCCC3)c3ccccc23)c(OC)c1	36%[activator]	-2%	14%	·	·	·	-4%	·
Cc1cc(C=O)c(C)n1-c1ccc(N2CCCC2)c([N+](=O)[O-])c1	?	1%	22%	-8.4%	-4%	-4%	-13%	-10%
CC1(C)C2CCC1(CS(=O)(=O)NCc1ccc(Cl)cc1Cl)C(=O)C2 (stereo not drawn)	17%	-22%	2%	·	-20%	-2%[46.1 µM]	-2%	·
CC(=O)N1CCN(C(=O)c2cc(S(=O)(=O)NCc3ccccc3)ccc2C)CC1	5%	5%	-9%	·	3%	·	0%	·
O=C(NC(=S)NC(CO)c1ccccc1)c1ccc(F)cc1 (stereo not drawn)	-2%	?	-12%	·	·	·	0%	·
Cc1onc(-c2c(F)cccc2Cl)c1C(=O)NC(=S)NC1CCSC1=O (stereo not drawn)	0%	23%	-11%	-5.5%	10%	-3%	22%	-11%
CCN1CCCC1CNC(=O)c1ccc(N2CCOCC2)c(NS(=O)(=O)c2ccc(OC)cc2)c1 (stereo not drawn)	-1%	·	5%	·	2%	?	1%	·
COc1cnn(Cc2ccccc2)c(=O)c1SCc1ccccc1	28%	-11%	5%	-8.8%	4%	11%	7%	-3%
CCOC(=O)c1nnn(-c2nonc2OC)c1-c1ccccc1	-21%	-6%	12%	5.8%	-17%	12%	0%	0%
COc1ccc(CN2CCN(C(=O)c3ccc(S(=O)(=O)NCc4ccco4)cc3)CC2)cc1F	?	·	20%	·	?	?	3%	·
CCCCNC(=O)CSc1nc(N)c(C(=O)Nc2ccc(OC)cc2)s1	47%[activator]	6%	16%	·	-25%[46.1 µM]	12%[46.1 µM]	0%	·
